# Bead autofluor: flagged as autofluorescent in microsphere protease counterscreen; compound autofluorescence counterscreen, microsphere flow cytometry; hits give high values; fluorescence intensity (no concentration beside the values); 3.1% of 360,000 active;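 active = at least 3 SD above the mean of all compounds, about 16000 in these data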;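 also: 100 nL of 1 mM stock went into each well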
# RN4220 kill: kills Staphylococcus aureus RN4220. AID 1259311. S. aureus RN4220 growth, OD600, 16 h. inhibition, % (no concentration beside the values). 0.33% of 330,000 active;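 active = z-score of -3 or lower and OD600 up to 0.18 on both plates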;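 also: plate controls were untreated cells for no effect and reference antibiotic for full effect; stock transfer was 100 nL into about 80 µL; one replicate is shown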
# ugtP null kill: kills S. aureus RN4220 lacking UgtP; S. aureus RN4220 ugtP deletion, OD600 growth, 16 h; some inactives read as strong as hits; growth inhibition, % (test concentration not listed); 0.54% of 330,000 active; AID 1259309;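 active = z-score under -3 and OD600 up to 0.15 on both plates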;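 also: plate controls were untreated wells for no effect and antibiotic for full effect; wells of about 80 µL received 100 nL stock; the first replicate is given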
# BJeLR viability: kills HRASV12-expressing BJeLR cells. BJeLR (HRASV12) viability, CellTiter-Glo ATP luminescence, 48 h; reference of the scale not given here. inhibition, % (test concentration not listed). 0.17% of 300,000 active. AID 1554;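 active = replicate mean above 50%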;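 also: 50 nL library stock added to about 25 µL; numbers are from one replicate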
# PrP 5UTR inh: suppresses PrP 5' UTR mRNA reporter expression. inhibition, % (test concentration not listed). 0.35% of 340,000 active. cell-based PrP 5' UTR mRNA reporter, plate reader. AID 488862;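 active = every replicate at 50% or more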;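 also: 0 = median of the neutral control wells; tested in H4 reporter cells; numbers are from one replicate; inactives centre near -14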
# Mtb hypoxia rep: reduces hypoxia-regulated biosensor signal in M. tuberculosis; 0.1% of 300,000 active; fluorescence inhibition, % (test concentration not listed); M. tuberculosis hypoxia-regulated fluorescent reporter, fluorescence;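 active = 35 to 45% if threefold the growth effect, above 45% if 1.5-fold the growth effect; inactive = the rest, general growth blockers included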;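 also: wells of about 50 µL received 100 nL stock; 0% = vehicle wells and 100% = reference inhibitor wells; whole bacteria with a GFP reporter of the hypoxia response; strong numbers were not always called active; many hits fall short of the cut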
# Mtb hypoxia rep growth: further read-out of Mtb hypoxia rep, marked with its call; growth inhibition, %; measured here: M. tuberculosis growth (absorbance);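 0% = vehicle and 100% = reference antibiotic; read after six days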
# Numbers without * were called inactive; nt = not tested or not shown.
# Each structure is followed by: Bead autofluor	RN4220 kill	ugtP null kill	BJeLR viability	PrP 5UTR inh	Mtb hypoxia rep	Mtb hypoxia rep growth
Cc1ccc(CS(=O)(=O)CCC(=O)NCCCOC(C)C)cc1
 : 8822	1.5	3.8	0.6	-8.0	6.2	10.7
C/C=C(/C)C(=O)Nc1cccc(C2=NOC3(C2)C[C@@H](C(N)=O)N(C(=O)/C=C/CC)C3)c1 (stereo partly drawn)
 : 3847	nt	nt	-4.7	1.7	nt	nt
Cn1c(=O)c2[nH]c(N=NN3CCCCC3)nc2n(C)c1=O
 : 3767	6.7	9.5	nt	-22.9	20.4	8.9
Cc1c(NC(=O)c2coc(=O)c(Br)c2)c(=O)n(-c2ccccc2)n1C
 : 2950	3.8	-0.4	11.5	-25.1	6.5	9.6
C=CCn1c(Cc2csc(N)n2)nnc1SCc1ccc(C(=O)OC)cc1
 : 10648	3.5	-0.7	3.8	-17.6	6.2	7.6
Nc1cc(=O)[nH]c(SCc2ccccc2Cl)n1
 : 4377	3.7	-1.3	0.6	-71.3	-5.9	-3.0
Cc1cccc(C(=O)OCC(=O)NCCN2C(=O)CSC2=O)c1[N+](=O)[O-]
 : 5708	3.5	1.9	nt	-1.5	-10.8	2.0
Cn1cccc1C(=O)N1CCc2ccccc2C1
 : 6099	-1.4	-4.9	-6.6	-20.9	4.3	-1.6
COc1cc(C=NNC(=O)C(=O)/C=C2\NC3(CCCC3)Cc3ccccc32)ccc1O
 : nt	0.2	-5.5	nt	nt	9.7	7.5
COCCN(C(=O)COC(=O)c1cc2ccccc2cc1O)c1c(N)n(Cc2ccccc2)c(=O)[nH]c1=O
 : 5992	2.8	9.8	4.7	1.9	-1.3	-5.9
CN(C)CCCOc1nc2c(c(=O)n(C)c(=O)n2C)n1C
 : 2358	-5.3	-6.4	8.9	4.1	2.2	-1.5
Fc1ccc(NC(=S)N2CCCC(c3ccccc3)=N2)cc1
 : 3249	3.5	-2.2	-2.1	2.1	7.2	-4.0
CCOC(=O)C1Oc2ccccc2C(c2cccc3ccccc23)=C1C(=O)OC (stereo not drawn)
 : 3818	0.7	24.5	nt	-20.0	1.5	2.0
Cc1ccc2cc(CN(CCN3CCOCC3)C(=O)NCc3ccccc3)c(=O)[nH]c2c1C
 : 2559	nt	nt	-4.1	-15.8	nt	nt
O=C(Nc1ccccc1N1CCOCC1)c1ccc(Cl)c(S(=O)(=O)NCc2ccco2)c1
 : 4389	3.6	-1.5	-6.9	-42.1	2.8	3.7
Cc1ccc(S(=O)(=O)NCc2csc(-c3cccs3)n2)cc1
 : 5467	7.4	4.7	-6.9	-19.8	0.2	7.3
COc1cc(OC)cc(-c2cc3nc(C)c(CCC(=O)O)c(=O)n3[nH]2)c1
 : 5318	1.5	6.9	1.4	-3.2	7.6	7.1
CCCCCCCNC(=O)C1(CC2CC(c3cccc(Br)c3)=NO2)CCN(C(=O)OC(C)(C)C)CC1 (stereo not drawn)
 : 3759	3.0	-0.8	-0.5	-1.2	1.3	5.4
Fc1ccc(NC2=NCCS2)cc1Cl
 : 2698	-5.1	-4.6	5.1	-22.5	nt	nt
Cc1cccc(NC(=S)N/N=C/c2ccc(Cl)c([N+](=O)[O-])c2)c1
 : 9246	nt	nt	-8.2	-8.6	nt	nt
Cc1nn(C)c(C)c1S(=O)(=O)N(CC(=O)N1CCc2ccccc21)c1ccc(C(C)C)cc1
 : 5726	5.2	16.5	-5.7	-6.2	-1.0	4.7
CCC(=O)Nc1ccccc1
 : 5900	1.6	7.1	3.7	-0.8	nt	nt
NC(=O)c1c(NC(=O)c2ccccc2)sc2c1CCC2
 : 10097	-1.2	-27.2	8.8	-80.2	-11.7	14.9
COc1cccc(C=NNC(=O)c2ccc3nc[nH]c3c2)c1O
 : nt	-0.1	4.7	nt	nt	5.7	3.9
CN(C)S(=O)(=O)c1ccc(-c2cn3ccccc3n2)cc1
 : 9243	1.5	-1.5	-2.8	-47.3	-1.3	-4.5
Cc1c(NC(=O)C(C)OC(=O)/C=C/c2ccc3c(c2)OCO3)c(=O)n(-c2ccccc2)n1C (stereo not drawn)
 : 5586	5.2	11.1	-8.9	-98.0	14.3	5.9
Cc1ccc(SCC(=O)NNC(=O)CNC(=O)c2ccccc2F)cc1
 : 3082	1.6	5.8	nt	-8.7	5.5	0.1
CCCC(=O)Nc1ccc(C(=O)N/N=C/c2ccc[nH]2)cc1
 : 2440	nt	nt	-5.4	-29.8	nt	nt
CCn1c(=O)c(C(=O)Nc2ccccc2F)c(O)c2ccccc21
 : 3433	-1.7	14.8	5.8	-13.7	5.5	-1.5
CC(C)C[C@H](NC(=O)c1nc[nH]c1C(=O)NCCCCCNC(=O)OC(C)(C)C)C(=O)OC(C)(C)C
 : 4130	nt	nt	-19.2	-17.3	nt	nt
CCN(CC)c1ccc(CNc2nc3ccccc3n2CCN2CCOCC2)cc1
 : 2683	2.0	16.2	-4.7	-28.6	8.0	8.9
COc1cccc(C(=O)N2CCC(C(=O)NCc3ccco3)CC2)c1
 : 2837	6.5	7.1	-10.5	-0.1	-0.3	7.1
COC(=O)CC(=O)CSc1nc2c(cc1C#N)CCC2
 : 7988	9.8	2.2	-6.2	-16.9	12.3	6.0
OCC1(Cc2ccccc2C(F)(F)F)CCN(Cc2cccc3cnccc23)CC1
 : 2158	5.3	7.8	-6.3	0.0	6.1	0.2
O=C(Nc1ccc(N2CCOCC2)cc1)c1cn2ccccc2n1
 : 2480	5.1	0.1	36.3	11.4	7.2	-0.2
COC(=O)c1ccc(NC(=O)Cn2c([N+](=O)[O-])cnc2C)cc1
 : 3044	nt	nt	5.1	-8.3	nt	nt
O=[N+]([O-])c1cc([N+](=O)[O-])c(Oc2c(F)ccc(F)c2F)cc1NN1CCCCC1
 : 3426	-2.3	7.2	3.7	-25.0	19.6	7.2
CNC(=O)c1[nH]cnc1C(=O)N[C@@H](C)C(=O)OC(C)(C)C
 : 3979	nt	nt	4.3	-22.6	nt	nt
CN1CCN(c2ccc([N+](=O)[O-])cc2Cl)CC1
 : 3482	-3.2	-8.1	1.7	1.2	3.8	4.6
Cc1ccn(C(=O)c2ccc(NC(=O)C3CC3)cc2)n1
 : 3267	0.6	5.3	4.5	-10.6	3.7	-10.3

# As a working copy, part of the list above.
# Each structure is followed by: Bead autofluor	RN4220 kill	ugtP null kill	BJeLR viability	PrP 5UTR inh	Mtb hypoxia rep	Mtb hypoxia rep growth
Fc1ccc(NC2=NCCS2)cc1Cl
 : 2698	-5.1	-4.6	5.1	-22.5	nt	nt
Cc1cccc(NC(=S)N/N=C/c2ccc(Cl)c([N+](=O)[O-])c2)c1
 : 9246	nt	nt	-8.2	-8.6	nt	nt
Cc1nn(C)c(C)c1S(=O)(=O)N(CC(=O)N1CCc2ccccc21)c1ccc(C(C)C)cc1
 : 5726	5.2	16.5	-5.7	-6.2	-1.0	4.7
CCC(=O)Nc1ccccc1
 : 5900	1.6	7.1	3.7	-0.8	nt	nt
NC(=O)c1c(NC(=O)c2ccccc2)sc2c1CCC2
 : 10097	-1.2	-27.2	8.8	-80.2	-11.7	14.9
COc1cccc(C=NNC(=O)c2ccc3nc[nH]c3c2)c1O
 : nt	-0.1	4.7	nt	nt	5.7	3.9

# Going on with the list.
# Each structure is followed by: Bead autofluor	RN4220 kill	ugtP null kill	BJeLR viability	PrP 5UTR inh	Mtb hypoxia rep	Mtb hypoxia rep growth
c1ccc(Nc2nnc(-c3cccc4ccccc34)o2)cc1
 : 5454	2.3	-11.2	-7.0	nt	21.3	11.4
O=C(c1cccc(NS(=O)(=O)c2ccc(Br)cc2)c1)N1CCN(c2ccccc2O)CC1
 : nt	2.5	-13.9	nt	-6.6	-10.4	2.9
O=C(NCCC(=O)N1CCOCCOCCOCCOCC1)OCc1ccccc1
 : 3377	5.0	9.4	3.1	-43.4	11.7	4.0
COc1ccc(-c2csc3nc(C)n(-n4cccc4)c(=O)c23)cc1
 : 3473	-0.3	0.4	-3.0	-9.6	12.4	2.8
COc1cc(/C=C/C(=O)OCC(=O)N2CCCCCC2)ccc1OCC#N
 : 3302	6.2	2.6	4.4	-11.5	17.7	7.6
O=S1(=O)CC(N2CCCCC2)C(N2CCCCC2)C1 (stereo not drawn)
 : 3523	5.0	6.8	3.9	69.3*	6.2	7.6
Cc1sc2ncnc(SCC(=O)NC3CC3)c2c1C
 : 24257*	-1.7	-8.4	-1.5	7.1	1.9	6.5
CCOc1ccccc1NC(=O)c1cc(C(=O)c2cc(Br)ccc2O)coc1=N
 : 3823	-1.0	-18.4	nt	-11.3	3.2	2.6
CCOC(=O)c1cnc2c(C)c(Cl)ccc2c1Nc1ccc(S(=O)(=O)Nc2ncccn2)cc1
 : nt	-0.6	1.7	1.3	nt	11.0	7.9
Cc1ccc(Cl)cc1NC(=O)CSC(N)=O
 : 3175	0.5	82.1	6.9	-20.0	-2.6	1.9
C=CCN1C(=O)c2ccccc2Sc2ccc(C(=O)NC(C)C)cc21
 : 3720	3.0	-7.3	1.6	-0.4	-0.9	13.7
O=C(COC(=O)c1ccccc1C(=O)c1ccccc1)Nc1cccc([N+](=O)[O-])c1
 : 2560	nt	nt	-15.6	-11.3	nt	nt
CCn1c(C(C)NC(C)=O)nc2ccccc21 (stereo not drawn)
 : 6227	-5.6	5.8	12.6	-9.5	1.8	5.7
O=C(Nc1ccc(OC(=O)c2ccncc2)cc1)c1ccncc1
 : 9483	6.5	5.3	-1.5	-1.3	6.6	3.9
CCOC(=O)c1cc2c(=O)n3ccccc3nc2n(CCCOC)c1=NC(=O)c1cccnc1
 : nt	0.6	8.3	-0.4	nt	1.4	-6.4
CCc1nnc(NC(=O)CSc2nnnn2C)s1
 : 3756	0.8	-2.4	0.8	-14.0	-8.7	-5.3
O=c1[nH]c(C2CCN(S(=O)(=O)c3ccccc3)CC2)nc2c1nnn2Cc1c(F)cccc1Cl
 : 3738	-1.6	-8.2	-8.7	-11.2	-1.1	14.1
COc1ccc(Cn2nnnc2CN2CCCCCC2)cc1
 : 3044	3.5	8.1	2.9	-54.9	8.6	3.2
Cn1c(CSc2nc3ccccc3s2)nnc1SCC(=O)NCc1cccnc1
 : 8274	4.1	7.5	-0.3	-25.6	1.9	-1.3
O=C(O)CC1SC(=Nc2ccc(O)cc2)NC1=O (stereo not drawn)
 : 4422	3.4	-4.8	10.1	-14.1	7.2	-0.2

# (further entries)
molecule | Bead autofluor | RN4220 kill | ugtP null kill | BJeLR viability | PrP 5UTR inh | Mtb hypoxia rep | Mtb hypoxia rep growth
COc1ccc(NC(=O)CSc2n[nH]c(-c3ccccc3)n2)cc1S(N)(=O)=O | nt | 1.5 | 1.7 | nt | nt | 14.7 | 5.8
CC(C)N(C(=O)CSc1nnc(C2CC2)n1C1CC1)c1ccccc1 | nt | 2.8 | 6.1 | nt | -16.5 | 9.1 | -0.5
O=C(CSc1nnc(CNC(=O)c2cccs2)o1)NC1CCCCC1 | 2423 | 4.0 | 12.4 | 3.0 | -5.9 | nt | nt
COc1ccc(-n2c(SCC(=O)Nc3ccc([N+](=O)[O-])cc3OC)nc3ccccc32)cc1 | 9077 | -1.3 | -4.6 | 5.8 | 0.4 | 5.6 | -10.3
CC(C)(C)c1ccc(OCC(=O)N(Cc2cccs2)C2CCS(=O)(=O)C2)cc1 (stereo not drawn) | 6512 | 2.6 | -1.1 | -1.6 | -20.7 | 4.7 | 2.2
O=C(NC1CCCCCC1)c1cc(=O)[nH]c2ccc(S(=O)(=O)N3CCOCC3)cc12 | 3913 | 6.3 | 6.8 | -7.3 | -13.1 | -7.7 | 0.6
COc1ccc(-c2cn3cccnc3n2)cc1NC(=O)C(C)Oc1ccccc1 (stereo not drawn) | 5915 | 6.2 | -9.3 | -0.3 | -14.8 | 5.1 | 8.5
CN(CC(=O)Nc1cccc(F)c1)C(=O)CCCn1c(=O)oc2ccccc21 | 4616 | 3.8 | 10.2 | -9.6 | -15.4 | 0.6 | 1.0
O=C(CC(=NO)c1ccccc1O)C(F)F | nt | 12.1 | 4.8 | nt | nt | -7.3 | 9.9

# Screening results as filed in PubChem BioAssay.
